Assay outcomes deposited in PubChem BioAssay by several laboratories.
MT1-MMP act inh – blockers of MT1-MMP proenzyme processing, primary screen, HT1080 RFP-PRO-GFP cells, GFP/RFP fluorescence; GFP/RFP ratio fluorescence, overnight; percent of plate control window, DMSO zero; GFP/RFP ratio change, % at 20 µM; AID 651647, 2012; 360,000 tested, 0.061% active; Matrix metalloproteinase-14 (Homo sapiens), P50281;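 active = GFP/RFP ratio change of at least 30% with cell ATP level not reduced by more than half and red fluorescence within 50% of control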; note: strong numbers were not always called active
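Compound: 20 µM single dose, 1% DMSO / System: HT1080 RFP-PRO-GFP cells / Controls: DMSO and RFP-L50D-GFP cell wells / Read-out basis: GFP/RFP fluorescence ratio / Schedule: overnight compound exposure at 37 °C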
PABP polyA inh – PABP poly(A) RNA binding inhibitors, primary screen, biochemical, fluorescence polarization, uHTS; inhibition, % at 35 µM; 290,000 tested, 1% active; AID 2014, 2009; Polyadenylate-binding protein 1 (Homo sapiens), P11940;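 active = 50% or more with normal probe brightness, or confirmed in later tests; about a fifth of its hits are not listed in these tables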;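 note: calls also rest on retests at 20 µM and on dose response follow-up; controls were probe without protein and protein plus probe with vehicle; some compounds called inactive have numbers as strong as hits; many hits fall short of the cut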
Target sequence (P11940 whole entry, looked up): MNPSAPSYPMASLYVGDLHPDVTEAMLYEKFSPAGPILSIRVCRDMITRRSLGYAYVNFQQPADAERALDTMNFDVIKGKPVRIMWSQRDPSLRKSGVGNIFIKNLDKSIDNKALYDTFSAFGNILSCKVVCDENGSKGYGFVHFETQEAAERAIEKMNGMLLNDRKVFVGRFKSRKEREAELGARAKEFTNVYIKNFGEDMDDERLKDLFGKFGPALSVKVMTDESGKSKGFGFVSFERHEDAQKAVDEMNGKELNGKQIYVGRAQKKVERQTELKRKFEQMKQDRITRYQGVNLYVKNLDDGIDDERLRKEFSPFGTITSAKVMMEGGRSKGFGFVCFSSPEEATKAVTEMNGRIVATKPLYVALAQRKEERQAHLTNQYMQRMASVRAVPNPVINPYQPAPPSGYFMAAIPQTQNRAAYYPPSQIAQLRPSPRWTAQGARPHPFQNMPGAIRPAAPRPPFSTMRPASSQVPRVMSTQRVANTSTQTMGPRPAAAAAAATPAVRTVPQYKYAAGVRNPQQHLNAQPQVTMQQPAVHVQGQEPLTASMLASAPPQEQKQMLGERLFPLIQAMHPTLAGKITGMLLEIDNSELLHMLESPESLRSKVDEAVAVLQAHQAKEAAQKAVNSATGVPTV
HIV Env fusion – inhibitors of HIV-1 Env-driven cell-cell fusion, primary screen, HeLa-JRFL effector, CEM21 target cells, luciferase. inhibition, % at 12.3 µM. 360,000 tested, 1.1% active;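 active = mean replicate inhibition score of at least 50 and every replicate individually at or above 50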;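 note: 0% = plate neutral controls and 100% = maraviroc near 300 nM; one replicate is shown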
eIF4H FP inh – human eIF4H binding inhibitors, primary screen, translation initiation inhibitor project, biochemical, uHTS, fluorescence polarization; Eukaryotic translation initiation factor 4H (Homo sapiens), Q15056; eIF4H fluorescence polarization binding assay; inhibition, % at 35 µM; 290,000 tested, 0.94% active; AID 2012, 2009;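 active = 50% or more with normal probe brightness, or confirmed in later tests; about a fifth of its hits are not listed in these tables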;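 note: calls also rest on retests at 20 µM and on dose response follow-up; 0% = protein and probe with vehicle and 100% = probe without protein; strong numbers were not always called active; many hits fall short of the cut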
CSC inhib – cancer stem cell viability inhibitors, primary screen, luminescence; cancer stem cell-like cells viability; inhibition, % at 7.5 µM; 300,000 tested, 1.1% active; AID 2717, 2010;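 active = mean at 75% or more and at least half the replicates too; tested in HMLE shEcad cells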;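 note: 0% = median of negative and 100% = median of positive control wells; the first replicate is given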
UUG fidelity – modulators of yeast start codon fidelity, primary screen, whole organism, S. cerevisiae, single point, plate reader. S. cerevisiae UUG-firefly luciferase reporter, luminescence/redox ratio. activity score, % at 18.7 µM. 350,000 tested, 0.13% active. AID 602363, 2012;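 active = replicate mean at a twofold rise or more, about +100% in these data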;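 note: firefly luciferase made from a UUG start codon reports start codon fidelity; reporter light over untreated wells divided by growth signal over untreated wells; some hits fall short of that in this replicate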
Rce1 inhib – yeast Rce1p protease inhibitors, primary screen, biochemical, fluorescence, cell-free homogeneous. CAAX prenyl protease 2 (Saccharomyces cerevisiae (strain ATCC 204508 / S288c)), Q03530. yeast membranes, quenched prenylated peptide cleavage fluorescence. calls only. 290,000 tested, 0.27% active. AID 2563, 2010;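 active = fall in fluorescence gain of 50% or more versus controls, with final raw signal at or below 3038400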;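 note: plate controls were neutral control wells for no effect and wells lacking membranes for full effect; tested at 10 µM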
eIF4H FP inh retest – second read-out of eIF4H FP inh, no call of its own (marks repeat the call); inhibition, %; compound at 20 µM; confirmation average;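 mean of two retest wells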
PABP polyA inh retest – second read-out of PABP polyA inh, no call of its own (marks repeat the call); inhibition, %; compound at 20 µM; confirmation repeats;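 mean of two retest wells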
MT1-MMP act inh RFP – further read-out of MT1-MMP act inh, marked with its call; RFP signal change, %; measured here: RFP expression control read;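 0 = vehicle wells; hits needed this value within 50% of zero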
* = called active by the depositor; i = inactive; x = no result given. An excerpt. The share of hits here may be higher or lower than overall.

SMILES | MT1-MMP act inh | MT1-MMP act inh RFP | PABP polyA inh | HIV Env fusion | eIF4H FP inh | CSC inhib | UUG fidelity | Rce1 inhib | others
O=C1C2C3CCC(O3)C2C(=O)N1c1cc(OCC(F)F)cc([N+](=O)[O-])c1 (configuration not stated) | 1 | 3 | x | 7 | x | x | 5 | x
Cc1ccc(N2C(=O)C(CC(=O)Nc3cccc(F)c3)N(CCc3ccncc3)C2=O)cc1 (configuration not stated) | -6 | -5 | 2 | 9 | 6 | -15 | x | i
O=C(Nc1cc(S(=O)(=O)N2CCCC2)ccc1OCC(F)(F)F)c1ccncc1 | 3 | 0 | x | 14 | x | x | -12 | x
CCOC(=O)N1N=C(C)CC1(O)c1ccccc1 (configuration not stated) | 4 | 5 | -1 | -16 | -9 | 0 | -10 | i
CCn1c(=O)n(CC)c2cc(S(=O)(=O)NCCOc3ccccc3)c(C)cc21 | 21 | -6 | -6 | x | -6 | -1 | 6 | i
COc1ccccc1NS(=O)(=O)c1cccc(C(=O)NCC(c2ccc(F)cc2)N2CCOCC2)c1 (configuration not stated) | 1 | -5 | x | 3 | x | 7 | -14 | i
CCOC(=O)N1CCN(CCC(=O)Nc2ccc(OC)cc2)CC1 | 2 | 3 | 8 | 39 | -7 | -6 | -10 | i
Cc1ccc(S(=O)(=O)NCCCCC(NC(=O)OC(C)(C)C)C(=O)O)cc1 (configuration not stated) (tested in a mixture with another compound) | -8 | 2 | 1 | x | -5 | 10 | 1 | i
O=C(COc1nnnc2ccccc12)N1CCCc2ccccc21 | 9 | 10 | 2 | -2 | -11 | -10 | -10 | i
COc1cc(NC(=O)c2cccc(F)c2)cc(OC)c1OC | 4 | 3 | -6 | 0 | -6 | 9 | x | i
[O-][n+]1c2c(nc3c1-c1ccccc1C3O)CCCC2 (configuration not stated) | x | x | 7 | x | 1 | x | x | i
CC(CNC(=O)c1ccc2c(c1)OCO2)c1ccc([N+](=O)[O-])cc1 (configuration not stated) | -8 | -3 | -6 | 12 | -8 | -4 | x | i
CC1(C(=O)Nc2cccc3ncccc23)CCN1C(=O)Cc1ccc(-c2ccccc2)cc1 (configuration not stated) | 3 | -12 | x | -37 | x | x | -15 | x
COc1ccc(N(CC(=O)NCCc2ccccc2)C(=O)CCC(=O)Nc2ccccn2)cc1 | -2 | 1 | 6 | -7 | -5 | x | -14 | i
COC(=O)c1ccccc1NC(=O)CSc1nccc(C)n1 | 10 | 5 | -5 | 18 | 3 | -5 | -12 | i
CC(=O)c1c(C)[nH]c(C(=O)COc2cc(C)ccc2C(C)C)c1C | -9 | -31 | -6 | x | -6 | 17 | -16 | i
Cc1cc(-c2nnc(CCC(=O)N3CCN(Cc4cccc(F)c4)CC3)o2)c(C)o1 | -3 | -1 | 5 | -2 | 3 | -11 | 5 | i
CN1CC[C@@H]2C(=O)N3CCc4ccc(Br)cc4[C@@H]3C[C@@H]21 | 0 | 7 | x | 13 | x | x | 8 | x
CCOC(=O)c1ccc(Oc2cc(C)nc(Cl)n2)cc1 | -1 | 3 | 0 | -5 | -4 | -4 | x | i
O=[N+]([O-])c1cc(-c2cnc3ccccc3n2)ccc1Cl | -2 | -1 | 0 | -21 | -1 | -9 | x | i
CCCCn1c(N)c(N(CC)C(=O)c2ccccc2C)c(=O)[nH]c1=O | -4 | -2 | 2 | -10 | 1 | 0 | -12 | i
COc1ccc(CCNCC(O)COc2cccc(Br)c2)cc1OC (configuration not stated) | 3 | 2 | -1 | 16 | 5 | -6 | -4 | i
CCOc1ccc(NC(=O)CN2CCN(CC(=O)Nc3ccc(F)cc3)CC2)cc1 | 10 | -1 | -9 | x | -8 | -6 | -14 | i
C/C(N)=C(/C#N)C(=O)COC(=O)CCSc1ccccc1Cl | -3 | 4 | 0 | -60 | 2 | 0 | -20 | i
CC1(NC(=O)CCc2nc3sc4c(c3c(=O)[nH]2)CCCC4)CCS(=O)(=O)C1 (configuration not stated) | -7 | 2 | x | 4 | x | 9 | 8 | i
NNC(=O)c1cccc(S(=O)(=O)Nc2cc(Cl)ccc2Cl)c1 | 0 | 4 | 2 | 1 | -1 | -12 | x | i
CC(NC(=O)c1ccc(OC2CCN(Cc3ccccn3)CC2)cc1)c1ccccc1 (configuration not stated) | -8 | -6 | 5 | 7 | 0 | 2 | 1 | i
COCCCNc1nc2ccccc2nc1NS(=O)(=O)c1ccc(Cl)cc1 | 1 | -3 | 4 | 10 | 3 | 12 | -6 | i
Cc1cc2nc(/C(C#N)=C/c3ccncc3)[nH]c2cc1C | -2 | 2 | -16 | 8 | 6 | 10 | -12 | i
COCCN(C(=O)CNC(=O)c1ccco1)C(C(=O)NC1CCCCC1)c1cccnc1 (configuration not stated) | 3 | 0 | -1 | 3 | -4 | -11 | -21 | i
CCCNC(=O)C1(C)CCCN(C(=O)c2oc3ccccc3c2C)C1 (configuration not stated) | 5 | 0 | x | -52 | x | x | -15 | x
O=C(COC(=O)c1cccc(Br)c1)NC1CCCCCCC1 | 4 | 6 | x | 58* | x | x | -4 | x
S=C1NCCNC(=S)NCCOCCN1 | 2 | 6 | -1 | 8 | -6 | 1 | x | i
CCC1CCCCN1C(=O)N[C@@H](Cc1ccccc1)C(=O)O (some centres not stated) | -7 | 5 | 2 | -40 | 3 | -4 | 3 | i
COc1ccc(CCC(=O)OCC(=O)Nc2ccccc2OC(F)F)cc1OC | 0 | 1 | -8 | -3 | 8 | x | -11 | i
COc1cccc(CN2C(=NC(=O)CCC3CCCC3)SC3CS(=O)(=O)CC32)c1 (configuration not stated) | -2 | -4 | 4 | 16 | -7 | 1 | 5 | i
Cc1ccc(S(=O)(=O)N2CCN(C(=O)COC(=O)/C=C/c3ccc([N+](=O)[O-])cc3)CC2)c(C)c1 | 2 | 0 | x | 5 | x | -1 | -7 | x
c1ccc(CNc2nc(-c3cccnc3)cs2)cc1 | -2 | -7 | -6 | 6 | 1 | 2 | x | i
CCOC(=O)N1CCC(NC(=O)c2ccc3nc4ccccc4c(=O)n3c2)CC1 | x | x | 9 | x | -9 | x | x | i
Cc1ccc(S(=O)(=O)N(C)C)cc1NC(=O)c1cc(=O)[nH]c2ccccc12 | 0 | -1 | 4 | -1 | 0 | -12 | -10 | i
NC(=O)c1ccc(NC(=O)COC(=O)CCC(=O)c2ccc(Cl)cc2)cc1 | 1 | 5 | 1 | -142 | -7 | -5 | x | i
CC(=O)Oc1ccc(C(=O)Cc2ccc3ccccc3n2)c(O)c1C | -15 | -5 | 1 | -63 | 60 | 15 | x | i | eIF4H FP inh retest=6;PABP polyA inh retest=28
Nc1nc(N)nc(-c2cccc(Cl)c2)n1 | -6 | 1 | x | -51 | x | 0 | 8 | x
CCOc1cccc(C=NCCc2ccc(OC)c(OC)c2)c1O | 0 | 2 | -1 | 2 | 2 | -8 | -5 | i
COc1ccc(-n2cnnc2SCc2cnc(-c3ccccc3)s2)cc1 | 6 | 2 | -2 | -18 | -11 | -9 | -16 | i
COc1ccccc1OCCC(=O)OCC(=O)Nc1ccc(S(=O)(=O)N2CCOCC2)cc1 | 3 | 2 | 5 | -11 | -5 | -8 | x | i
CN1CCN(S(=O)(=O)c2ccc(NC(=S)NC(=O)C3CCC3)cc2)CC1 | 4 | 5 | 0 | x | 0 | 15 | x | i
Cn1c(=O)[nH]c(=O)c2c1nc(N/N=C/c1cccnc1)n2Cc1ccc(Cl)cc1 | 5 | 1 | 2 | 15 | -6 | -2 | -25 | x
CC(=O)c1cn(Cc2ccccc2)c(=O)n(Cc2ccc(F)cc2)c1=O | 8 | 8 | -3 | -6 | -3 | -5 | x | i
CN(C)S(=O)(=O)c1cccc(COC(=O)c2cccnc2Cl)c1 | 2 | 1 | -4 | 10 | -14 | 17 | -9 | i

Other entries follow:
SMILES | MT1-MMP act inh | MT1-MMP act inh RFP | PABP polyA inh | HIV Env fusion | eIF4H FP inh | CSC inhib | UUG fidelity | Rce1 inhib | others
COc1ccc(Cl)cc1C(=O)Nc1ccc(NC(=O)C(C)C)cc1 | 8 | 4 | -1 | 2 | 9 | 20 | -17 | i
CCCN1CCN(C(=O)c2noc3c2COc2ccc(C)cc2-3)CC1 | 4 | 3 | 4 | -6 | -4 | 41 | -11 | i
COc1ccc(S(=O)(=O)N2CCC(Nc3ccccc3Cl)CC2)cc1 | -8 | 3 | -8 | -38 | -10 | -1 | -3 | i
Cc1cc[n+](-c2nc3ccccc3nc2[N-]S(=O)(=O)c2cccs2)cc1C | -4 | 1 | -5 | -8 | 41 | -6 | x | i
CCOC(=O)C1CCCN(C(=O)c2ccc(OC(C)=O)cc2)C1 (configuration not stated) | 2 | 3 | -2 | -59 | -11 | -8 | -7 | i
C=CCOc1ccccc1CN1CCC(n2nccc2NC(=O)C2CCOC2)CC1 (configuration not stated) | -2 | -3 | -12 | x | -11 | -5 | -16 | x
COc1ccc(C(=O)N2CCN(C(=O)Cc3ccccc3)CC2)cc1 | 0 | -1 | -4 | 11 | 3 | -7 | x | i
Cc1ccc(NC(=S)c2ccc3ccccc3n2)c(C)c1 | -1 | 2 | 1 | -62 | -3 | -1 | -17 | i
CC(=O)Nc1ccc(OCCOc2ccccc2C(C)=O)cc1 | -1 | -2 | 5 | 3 | -7 | x | -14 | i
